Screening data from PubChem BioAssay.
LMNA splice mod: modulators of lamin A splicing; HeLa LMNA splicing GFP/RFP minigene ratio, 48 h; Potency, µM (titrated, usually from 46.1 µM), inactives show top-dose ratio change, negative = inhibition, usual class: inhibitors; AID 1487; 200,000 tested, 0.01% active; active = well fitted inhibition curve with a large enough effect in the signal ratio, with a control signal flat, not every such curve was filed as active; inconclusive = small, poorly fitted or top-dose-only effect, or effect the other way, or a change in a side signal; the % refers to the signal ratio; also: potency is read from the fitted curve at half-maximal effect; % is scaled to controls: 0 for no effect and ±100 for the full control effect
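Read-out is the ratio of GFP to DsRed2 object intensity, acquired by 488 nm laser-scanning cytometry on HeLa lamin A-EGFP minigene reporter cells. Compound incubation 48 hrs at 37 °C in Opti-MEM with 2% FBS; DMSO 0.5% final.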
IMPase Li cell: cell-permeable IMPase inhibitors with lithium potentiation. CHO-M1 cells, IP1 TR-FRET (IP-One), carbachol + lithium. Potency, µM (top dose mostly 59.4 µM), inactives show top-dose activity, negative = IMPase inhibition, usual class: inhibitors. 210,000 tested, 0.35% active. AID 1457;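 also: IP1 builds up when IMPase is blocked and the TR-FRET signal falls; potency is read from the fitted curve at half-maximal effect; plate controls were basal vehicle for no effect and high inhibitor control for full effect; nearly all actives have a fitted effect of over 50% in size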
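IP1 accumulation measured by competitive TR-FRET in lysed CHO-M1 cells after 30 min compound exposure at 37C, with a small lithium addition to potentiate weak responses. Hill-equation AC50 from ratio and donor-channel data.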
CBFb-RUNX1 inh: inhibitors of human CBF-beta and RUNX1 interaction; AlphaScreen CBFb-His/RUNX1-biotin binding, biochemical; Q01196+Q13951; Potency, µM (highest dose often 59.8 µM), for inactives: top-dose activity, negative = inhibition, hits mostly inhibitors; 230,000 tested, under 10 active; also: % of control where 0% means no effect
Target sequence (Q01196 whole entry, looked up): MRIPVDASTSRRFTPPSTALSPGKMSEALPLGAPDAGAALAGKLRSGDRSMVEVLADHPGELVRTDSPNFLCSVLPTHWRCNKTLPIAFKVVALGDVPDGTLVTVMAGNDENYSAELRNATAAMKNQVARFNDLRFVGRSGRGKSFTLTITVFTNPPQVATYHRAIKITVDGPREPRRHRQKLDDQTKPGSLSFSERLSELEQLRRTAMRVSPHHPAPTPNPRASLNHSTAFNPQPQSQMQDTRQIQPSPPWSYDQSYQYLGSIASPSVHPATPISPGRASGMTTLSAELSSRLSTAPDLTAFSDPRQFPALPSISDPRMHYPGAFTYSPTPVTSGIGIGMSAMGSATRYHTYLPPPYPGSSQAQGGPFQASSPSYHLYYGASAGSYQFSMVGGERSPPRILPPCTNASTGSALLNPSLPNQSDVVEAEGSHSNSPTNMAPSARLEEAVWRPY
Target sequence (Q13951 whole entry, looked up): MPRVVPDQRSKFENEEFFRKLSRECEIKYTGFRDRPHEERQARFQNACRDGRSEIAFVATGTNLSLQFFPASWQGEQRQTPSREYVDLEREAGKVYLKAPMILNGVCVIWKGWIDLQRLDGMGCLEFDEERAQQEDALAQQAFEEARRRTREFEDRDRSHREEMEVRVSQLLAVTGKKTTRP
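AlphaScreen proximity signal reports loss of binding between His-tagged CBF-beta and biotin-labelled RUNX1, each at 30 nM. Proteins are pre-associated for 20 minutes, compounds added for 15 minutes, then beads for 90 minutes, all at ambient temperature.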
HttQ103 aggreg: mutant huntingtin aggregation inhibition. PC12 HttQ103-GFP aggregates, Acumen cytometry, 40 h. Potency, µM (series often up to 46.1 µM), for the others: top-dose activity change, negative = inhibition, actives largely listed as inhibitors. AID 1688. 220,000 tested, 1.1% active; also: potency is read from the fitted curve at half-maximal effect; % is scaled to controls: 0 for no effect and ±100 for the full control effect; nearly all actives have a fitted effect of over 60% in size
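Steps: seed 1500 PC12 HTTQ103-GFP cells/well; add tebufenozide, 100 nM final; add compound titration; add ATPLite reagent; quantify GFP aggregates by laser scanning cytometry.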
Epigenetic reg: derepresses silenced GFP reporter in murine cells. murine LDR cells, GFP reporter derepression, 30 h. Potency, µM (series often up to 53.9 µM), inactives show top-dose GFP activation, hits mostly activators. 280,000 tested, 0.2% active; also: potency is read from the fitted curve at half-maximal effect; % of control where 0% means no effect; nearly all actives have a fitted effect of over 60% in size
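Readout is the number of GFP-expressing murine LDR cells, counted by cytometry following washing. Cells were treated with compound for 30 h at 37 C; the stably integrated CMV-GFP locus is normally silent.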
Luc counter: Kinase-Glo luciferase inhibition (counter-screen). AID 1379. Potency, µM (highest dose often 38.3 µM), for inactives: at the highest dose activity change, negative = inhibition, actives largely listed as inhibitors. Q27757. 200,000 tested, 0.28% active. Kinase-Glo luciferase, ATP luminescence, 8 min; also: potency is read from the fitted curve at half-maximal effect; % is scaled to controls: 0 for no effect and ±100 for the full control effect; nearly all actives have a fitted effect of over 60% in size
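Compounds were added to a substrate mix at pH 7.2 (50 mM imidazole, 10 uM ATP, within the enzyme's linear range), followed by Kinase-Glo detection reagent; luminescence was measured after 8 minutes at ambient temperature.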
* marks the source's active call; other numbers are inactive results; ? = inconclusive; [ ] = remark or other dose. Unless noted, calls follow the shape of the dose curve; as a rule, active = well fitted curve in the direction sought with a large enough effect; inconclusive = small, poorly fitted or top-dose-only effect, or another doubt; inactive = no such curve, though single readings can be large; an effect the other way counts as inactive or inconclusive. The list is partial. The share of hits here may be higher or lower than overall.

Abbreviations: A = LMNA splice mod; B = IMPase Li cell; C = CBFb-RUNX1 inh; D = HttQ103 aggreg; E = Epigenetic reg; F = Luc counter
CCOc1ccc(C2=NNC(c3cccs3)=Nc3ccc(OCC)cc32)cc1
  A = -14%; B = 42%[activator][38.3 µM]; C = ?; D = -1%; E = -0.7%; F = 18%
Cc1ccc2c(CN3CCCc4ccccc43)cc(=O)oc2c1C
  A = -7%; B = ?; C = 6%; D = -7%; E = ?; F = 0%
CSc1nc(Oc2ccccc2)c2sccc2n1
  A = 8%; B = 6%[38.3 µM]; C = 18%; D = -2%; E = 5.3%; F = 1%
O=C(/C=C/c1ccccc1)NC(=S)Nc1ccc2c3c(cccc13)CC2
  A = ?; B = -5%; C = 7%; D = 19%; E = -1.0%; F = -1%
COc1ccc(CSc2nc(N3CCOCC3)c3c(c2C#N)CC(C)(C)OC3)cc1
  A = -4%; B = 9%; C = 13%; D = -16%; E = -2.0%; F = 1%
O=[N+]([O-])c1ccc2nc(/C=C/c3ccc(Cl)cc3)[nH]c2c1
  A = ?; B = 33%[activator][38.3 µM]; C = -8%; D = ?; E = 1.1%; F = -1%

Part of the list above in another layout:
Each structure is followed by: LMNA splice mod	IMPase Li cell	CBFb-RUNX1 inh	HttQ103 aggreg	Epigenetic reg	Luc counter
O=C(/C=C/c1ccccc1)NC(=S)Nc1ccc2c3c(cccc13)CC2
→ ?	-5%	7%	19%	-1.0%	-1%
O=[N+]([O-])c1ccc2nc(/C=C/c3ccc(Cl)cc3)[nH]c2c1
→ ?	33%[activator][38.3 µM]	-8%	?	1.1%	-1%
COc1ccc(CSc2nc(N3CCOCC3)c3c(c2C#N)CC(C)(C)OC3)cc1
→ -4%	9%	13%	-16%	-2.0%	1%

3 entries out of the list above, ordered by the value under CBFb-RUNX1 inh, lowest first.
molecule	LMNA splice mod	IMPase Li cell	CBFb-RUNX1 inh
Cc1ccc2c(CN3CCCc4ccccc43)cc(=O)oc2c1C	-7%	?	6%
O=C(/C=C/c1ccccc1)NC(=S)Nc1ccc2c3c(cccc13)CC2	?	-5%	7%
CSc1nc(Oc2ccccc2)c2sccc2n1	8%	6%[38.3 µM]	18%

In the list so far, 2 contain an aryl thioether with sulfur outside any ring.
Abbreviations: A = LMNA splice mod; B = IMPase Li cell; C = CBFb-RUNX1 inh; D = HttQ103 aggreg; E = Epigenetic reg; F = Luc counter
CSc1nc(Oc2ccccc2)c2sccc2n1
  A = 8%; B = 6%[38.3 µM]; C = 18%; D = -2%; E = 5.3%; F = 1%
COc1ccc(CSc2nc(N3CCOCC3)c3c(c2C#N)CC(C)(C)OC3)cc1
  A = -4%; B = 9%; C = 13%; D = -16%; E = -2.0%; F = 1%
